TAR Tat displ – HIV-1 TAR-Tat binding disruption; HIV-1 TAR RNA, Tat peptide displacement FRET; stronger effect = higher value; z-score (no concentration beside the values); 0.6% of 100,000 active; AID 1259389;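 note: score is relative to mean and SD of negative controls; some compounds called inactive have numbers as strong as hits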
CDC25B CDK2 inh – human CDC25B-CDK2/CyclinA binding inhibition; P30305+P24941; HTRF CDC25B-CDK2/CyclinA binding, anti-His/anti-Flag; stronger effect = higher value; z-score (no concentration beside the values); 0.72% of 94,000 active; AID 1259370;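 note: score is relative to mean and SD of negative controls; strong numbers were not always called active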
Numbers without * were called inactive; · = not tested or not shown.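 Rule for the calls: active = z-score from 3 up in half or more of its runs; inactive = the rest.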

compound	TAR Tat displ	CDC25B CDK2 inh
Cc1ccc2c(c1)nc(SCC(O)c1ccc(Br)cc1)n2C (configuration not stated)	-0.38	-0.47
Cc1ncc(-c2ccc(S(=O)(=O)NC3CCC(C)CC3)cc2)o1 (configuration not stated)	1.08	·
O=C(CCc1nnc2ccc(NCCCN3CCCC3=O)nn12)Nc1ccc(F)cc1	2.72	·
COc1cc(-c2cc(OC)c3c(C)oc(C)c3c(=O)c2)ccc1O	0.23	-0.73
O=C(c1cc(Br)cc2c1OCC2)N1CCOCC1	·	-1.23
CCOC(=O)Cc1csc(NC(=O)c2ccc(=O)[nH]n2)n1	0.68	·
O=S(=O)(CCN(CC1CCCO1)S(=O)(=O)c1ccc(C2CCCCC2)cc1)N1CCNCC1 (configuration not stated)	2.93	·
CC1=C(c2ccc(C)cc2)S(=O)(=O)N=C1Nc1ccc(C)cc1Cl	-3.03	-3.98
O=C(NCc1cccs1)C1CCCN(c2nc3ccccc3n3cccc23)C1 (configuration not stated)	-1.21	·
COc1ccc(C2OCC3(CO2)SC2=NCN(C)CN2C3=O)cc1 (configuration not stated)	·	-1.58
CC[C@H](C)NC(=O)CCCc1nnc2n(CCC(C)C)c(=O)c3sccc3n12	-1.28	·
CCOC(=O)CC1(C)NNC(=S)NN1	·	-1.28
CCOC(=O)C(CC)Sc1nc(-c2ccco2)nc2c1c(=O)n(C)c(=O)n2C (configuration not stated)	·	-2.16
N#C/C(=C\Nc1cnccn1)C(=O)c1cccs1	·	-1.4
Cc1ccc(-n2c(N)c(C#N)c3nc4ccccc4nc32)c(C)c1	-9.49	-6.01
CCC(C)C(=O)Nc1ncc2c(n1)CC(c1ccc(C(C)C)cc1)CC2=O (configuration not stated)	-0.08	0.34
CCOC(=O)N1CCN(C(=O)Nc2c[nH]c3cc(OC)ccc3c2=O)CC1	1.14	-0.99
CCOC(=O)CN1CSC2=C(C#N)C(c3ccc(Cl)cc3)CC(=O)N2C1 (configuration not stated)	3.29	3.76*
CCOc1ccc(-c2n[nH]c(=S)n2C)cc1	·	0.38
O=C(Nc1c(F)cc(F)cc1Br)c1ccc(Cl)c(Cl)c1	·	-1.56
C#CCN1C(=O)C(O)(C(C)C(=O)c2ccccc2)c2ccccc21 (configuration not stated)	-0.24	-0.3
Cn1nc(C(=O)NCc2ccccn2)c2c1-c1ccccc1S(=O)(=O)C2	0.19	-0.11
O=C(Nc1c2c(nn1-c1ccc(Cl)cc1)CSC2)c1ccc2c(c1)OCO2	·	-2.56
O=C(c1ccc(N2CCCS2(=O)=O)cc1)N1CCN(c2ncccn2)CC1	0.59	·
O=C(Cn1cnc2c(nnn2-c2cccc(Cl)c2)c1=O)N1CCN(c2ccccc2)CC1	1.31	-1.7
O=C1c2cccnc2C(=O)N1Cc1ccc(S(=O)(=O)N2CCc3ccccc32)cc1	0.53	·
CCOC(=O)N1CCC(Nc2nc3ccc(C)cc3n3cnnc23)CC1	0.08	-0.53
Cc1cc(C)c(-c2c(NC(C)(C)C)c(=O)c2=O)cc1C	1.24	·
CCSc1nn(CC(=O)Nc2ccc3c(c2)OCO3)c(N)c1S(=O)(=O)c1ccccc1	-0.94	·
O=C(CSc1nnc2ccccn12)c1ccc2c(c1)OCCO2	·	-0.6
CC(C)C(NS(=O)(=O)c1cccc2nsnc12)C(=O)N1CCn2c1nc1ccccc12 (configuration not stated)	·	1.23
Cc1ccc(C2=CSC3=NNC4(CCCCC4)NN23)cc1	·	-0.25
CCOC(=O)Cc1csc(NC(=O)CSc2nnc3ccc4ccccc4n23)n1	0.63	0.75
Cc1ccn(-c2n[nH]c(C)c2[N+](=O)[O-])n1	-0.31	-1.98
CC1N=C2c3ccccc3N=C(SCC(=O)Nc3ccc(Br)cc3)N2C1=O (configuration not stated)	0.65	·
CCCN=C(C1=C(O)C(=O)N(c2ccccc2)C1=O)c1ccccc1	·	-1.93
Cc1noc(-c2ccc(C)c(S(=O)(=O)NC3CCCC3)c2)n1	5.31	·
Cc1nnc(SCC(=O)NCc2ccco2)c2cc3sccc3n12	0.93	·
O=C(NCc1cn2ccccc2n1)c1ccco1	-0.26	-0.54
CN(C)c1ccc(C(=O)Nc2ccc(CN3CCS(=O)(=O)CC3)cc2)cc1	·	-0.67
COc1ccc(C(=O)c2cn(Cc3ccc(F)cc3)c3ccc(F)cc3c2=O)cc1	0.81	-0.92
Cc1ccc(S(=O)(=O)Nc2cc(N3CCCS3(=O)=O)ccc2C)cc1C	-0.26	·
Cc1cccc(C(=O)OCc2cc(=O)n3c(-c4ccccc4)csc3n2)c1	0.39	·
CCN(CC)CC(C)CNC(=O)c1cc(-c2ccccn2)nc2ccccc12 (configuration not stated)	0.27	·
CCOC(=O)C(C)Sc1nc(-c2ccccc2)ccc1C#N (configuration not stated)	-2.15	-1.45
CNC(=O)CN1C(=O)c2cccnc2Oc2ccc(Cl)cc21	-0.23	·
CCS(=O)(=O)c1nc(S(=O)(=O)c2ccc(C)cc2)c(N2CCOCC2)s1	0.91	1.32
Nc1ccccc1Sc1nc(Br)nn1CCc1ccccc1	1.92	·
COC(=O)C(NC(=O)CCc1c(C)nc2c(c1C)c(=O)n(C)c(=O)n2C)C(C)C (configuration not stated)	0.19	-1.62
Cc1cc(C)c(S(=O)(=O)NCCc2csc3nc(-c4ccccc4C)nn23)cc1C	2.3	·
CC(C)CC(=O)Nc1nnc(S(=O)(=O)N2CCc3ccccc32)s1	0.58	0.1
Cc1ccc(NC(=O)NC(C)c2c(-n3cccc3)sc3c2CCCC3)cc1 (configuration not stated)	0.88	0.22
O=C(Nc1cccc(-c2cn3cccnc3n2)c1)c1cccc(Br)c1	·	0.05
Cc1cc(CNC(=O)Nc2cccc(Cl)c2)c(C)n1-c1ccccc1	-0.75	·
Cc1ccc(S(=O)(=O)c2nc(-c3ccco3)oc2N2CCCCC2)cc1	0.53	-1.91
Cc1cc(NC(=O)Cn2nc(C(F)(F)F)c3c2CCC3)no1	-1.29	0.51
CC1CN(Cc2nc3c(c(=O)n(C)c(=O)n3C)n2Cc2ccc(F)cc2)CC(C)O1 (configuration not stated)	0.09	-1.94
CCc1ccccc1-n1nnc(-c2nc(-c3ccccc3F)no2)c1N	0.69	·
C=CCn1c(O)c(C2=Nc3ccccc3SC(c3ccc4c(c3)OCO4)C2)c(=O)[nH]c1=O (configuration not stated)	2.13	-1.58
CC(=O)c1ccc(OCc2ncc(C(F)(F)F)cc2Cl)cc1	·	0.13

The listing continues:
compound	TAR Tat displ	CDC25B CDK2 inh
Cn1c2ccccc2c2c(C(=O)Nc3ccccc3F)cn(C3CCCC3)c(=O)c21	-0.79	0.19
COc1ccc(C2C(C(=O)OCc3ccccc3)=C(C)NC3=C2C(=O)CC(C)(C)C3)c(OC)c1 (configuration not stated)	1.27	0.9
COc1ccc(OC)c(CNS(=O)(=O)c2cc(-c3onc(C)c3C)ccc2OC)c1	-0.06	·
CCOC(=O)COc1ccc2c(=O)c(Oc3ccc(OC)cc3)c(C(F)(F)F)oc2c1	2.84	-0.61
Cn1nnc2c(NCCCN3CCOCC3)ncnc21	1.5	·
Cc1ccc(Cn2cc3c(n2)-c2c(oc(C(=O)NCc4ccc5c(c4)OCO5)c2C)CC3)cc1	0.66	·
CC(=O)C(C)=O	·	-0.24
Cc1c(C(=O)N2CCCC2)sc2nc(-c3ccc(F)cc3)cn12	·	1.13
O=C(c1cc(-c2ccc(Cl)cc2)on1)N(Cc1ccccc1)C1CCS(=O)(=O)C1 (configuration not stated)	2.13	0.63
N#C/C(=C\Nc1cnccn1)S(=O)(=O)c1ccc(Cl)cc1	·	-0.62
O=C(Cn1cnc2c(nc3n2CCCCC3)c1=O)N1CCN(c2ccccn2)CC1	-0.36	·
Cc1nn(-c2nc3ccccc3n2C)c2c1C(c1ccc(F)cc1F)CC(=O)N2 (configuration not stated)	1.77	·
Brc1ccc(-c2nn3c(Cn4nnc5ccccc54)nnc3s2)cc1	1.3	-0.29
O=c1[nH]c2c(oc3ccccc32)c(=O)n1-c1ccc(F)c(Cl)c1	-1	0.16
O=C(Nc1ccc(F)cc1)C1CC(=O)N(CCc2c[nH]c3ccc(Cl)cc23)C1 (configuration not stated)	-1.39	0.23
CCCn1c(=O)c2sccc2n2c(CCCC(=O)N[C@@H](C)CC)nnc12	1.32	·
Cc1cc(CNC(=O)Nc2ccc(Br)cc2F)c(C)n1-c1ccccc1	-1.57	·
COc1ccc(C)cc1Nc1c(-c2ccc(C(C)C)cc2)c(=O)c1=O	1.32	·
Cc1ccc(-c2onc(C)c2C)cc1S(=O)(=O)NCc1ccccn1	1.11	·
CC1=CC(=O)C(C(C)C)=CC1=O	2.46	·
O=S1(=O)N=C(N2CCN(c3ccccc3)CC2)c2ccccc21	0.14	-1.64
Cc1cc(Br)ccc1S(=O)(=O)Nc1ccc(-c2nnc(-c3ccccc3)o2)cc1	0.29	·
CC(C)NC(=O)O/N=C(\N)CSc1nccn1C	·	-0.31
CCCS(=O)(=O)Cc1nnc(-c2cccs2)o1	·	-2.96
COc1ccc(S(=O)(=O)Nc2ccc(S(=O)(=O)Nc3nc(C)cc(C)n3)cc2)cc1OC	·	-0.89
Cc1noc(C)c1S(=O)(=O)N1CCC(C(=O)N2CCN(c3ccc(Cl)cc3)CC2)CC1	·	-2.18
Cc1nc2c3ccccc3n(Cc3ccccc3)c2s1	·	-1.43
Cc1cc(S(=O)(=O)[C@H]2CS(=O)(=O)C[C@@H]2NCc2ccccc2)ccc1F	1.6	-1.81
CC(NS(=O)(=O)c1ccc(F)cc1)c1nc(-c2ccc(Cl)cc2)no1 (configuration not stated)	1.12	0.55
Cn1c(C(=O)Nc2ccccc2Cl)c(N2CCCC2=O)c2cc(F)ccc21	0.68	·
COc1ccc2c(c1)CCC1C2=NN(C(C)=O)C1c1ccc(Br)cc1 (configuration not stated)	0.01	-0.51
CCN1CCN(c2ncnc3c2cnn3-c2ccc(F)cc2)CC1	0.73	·
CCOC(=O)N1CCN(c2c(NCCCN3CCN(CC)CC3)c(=O)c2=O)CC1	0.28	-1.86
COc1ccc(Nc2nc3ccc(Cl)cc3n3c(C)nnc23)cc1	-0.46	-3.27
O=C(NCc1ccccn1)c1cccn2c(=O)c3c4c(sc3nc12)CCCC4	-0.22	·
Cc1ccc2c(c1)cc1c(=O)n(CC(=O)NC(C)c3ccc4c(c3)OCCO4)nc(C)n12 (configuration not stated)	-0.14	-1.39
CCn1cc(S(=O)(=O)c2ccc(Cl)cc2)c(=O)c2cc(F)ccc21	1.27	-0.84
Cc1ccnc(N2CCC(C(=O)Nc3nnc(C)s3)CC2)n1	2.47	·
CC1CC(C)CN(c2ccc(S(N)(=O)=O)cc2[N+](=O)[O-])C1 (configuration not stated)	·	-1.26
CCN(CC)c1ccc2nnc(CCC(=O)NCCC3=CCCCC3)n2n1	0.13	·
O=C(CCc1nc(-c2cccs2)no1)NCc1ccco1	0.56	-0.53
O=C(Nc1ccc(F)cc1)N1CCN(c2nc3ccccc3s2)CC1	0.63	-2.23
Cc1cc(C)c2[nH]c(C)c(CN(C)C)c(=O)c2c1	-2.27	-1.55
Cc1cc(C)cc(NS(=O)(=O)c2ccc(-c3ccc(=O)[nH]n3)s2)c1	0.5	·
O=C(O)COCC(=O)Nc1ccc(OC(F)F)cc1	·	0.73
O=C(O)CCCC(=O)N1CCN(c2nc(-c3ccccc3)c3cc(Br)ccc3n2)CC1	4.13	-2.02
Cc1cccc2cc3c(nc12)N(S(=O)(=O)c1ccccc1)CC3	0.54	0.31
O=C(CN1c2cccc3cccc(c23)S1(=O)=O)Nc1ccccc1F	·	-1.05
CS(=O)(=O)N(Cc1ccccc1)c1ccccn1	-1.35	-0.38
CN1C(=O)c2cc(C(=O)NC3CCCCC3)nn2CC1(C)C(=O)NC1CCCC1 (configuration not stated)	-0.45	·
Cc1nn2cc(-c3ccc(C)c(C)c3)nc2s1	1.64	-1.62
COC(=O)c1ccc2c(=O)n3nc(Nc4ccc5c(c4)OCO5)sc3nc2c1	4.1	·
CCCCN1C(=O)C(=O)c2ccccc21	-0.1	-0.92
C=CCNC(=O)COc1nc(-c2cccs2)cc(C(F)(F)F)n1	0.06	-0.68
Cc1ccc(-n2cc(C(=O)O)nn2)cc1C	0.7	0.67
COc1ccc(Cl)cc1S(=O)(=O)N1CCCC(C(=O)O)C1 (configuration not stated)	1.3	-1.78
C=CCSc1nc2c(c(=O)[nH]1)C(c1ccc(Cl)cc1)C(C(=O)OCC)=C(C)N2 (configuration not stated)	0.64	0.9
COc1cc(/C=C2/SC(=S)NC2=O)ccc1OCCSc1ccc(C)cc1	·	-1.87
O=C(Cn1c(=O)c2cccn2c2ccccc21)N1CCc2ccccc21	1.99	·
NC(=O)C1CCN(c2ccc3nncn3n2)CC1	-0.82	-3.03
Cc1cc(C)c(Nc2ncnc(N)n2)c(C)c1	·	-1.17
O=C(c1cnn(-c2ccc(F)cc2)c1-n1cccc1)N1CCCCC1	0.22	·

Exported as labelled records: entries from further up.
molecule: CCN(CC)c1ccc2nnc(CCC(=O)NCCC3=CCCCC3)n2n1
  TAR Tat displ: 0.13
  CDC25B CDK2 inh: ·
molecule: O=C(Cn1c(=O)c2cccn2c2ccccc21)N1CCc2ccccc21
  TAR Tat displ: 1.99
  CDC25B CDK2 inh: ·
molecule: Cc1ccc2c(c1)cc1c(=O)n(CC(=O)NC(C)c3ccc4c(c3)OCCO4)nc(C)n12 (configuration not stated)
  TAR Tat displ: -0.14
  CDC25B CDK2 inh: -1.39
molecule: C=CCSc1nc2c(c(=O)[nH]1)C(c1ccc(Cl)cc1)C(C(=O)OCC)=C(C)N2 (configuration not stated)
  TAR Tat displ: 0.64
  CDC25B CDK2 inh: 0.9

High-throughput results (PubChem)
